Rango release inh – inhibition of RanGTP-driven Rango-importin beta dissociation; 340,000 tested, 0.071% active; O95149+P62826; Biochemical FRET Rango-importin beta, RanGTP-induced dissociation; Potency, µM (series often up to 46.1 µM), for the others: top-dose activity change, negative = inhibition; active means falling FRET ratio curve, often poorly fitted, with flat reads before Ran was added; inconclusive means other falling curves, or compound fluorescence or quenching; inactive means flat or rising ratio curve;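 also: potency is read from the fitted curve at half-maximal effect; % of control where 0% means no effect; nearly all actives have a fitted effect of over 45% in size; -100% = wells without RanGTP and RCC1; the record marks most hits as doubtful in a second field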
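Rango FRET biosensor (snurportin-1 IBB flanked by N-terminal EYFP and C-terminal CFP10) at 0.1 uM, with 0.25 uM importin beta in PBS, 1mM DTT, 0.02% Tween-20, 0.1% BSA. 0.6 uM Ran, 2mM GTP and 0.2 uM RCC1 were then added for 45 min at room temperature. Inhibition read as loss of FRET rise.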
GLA inh pH 4.5 – alpha-galactosidase A (human) inhibition, pH 4.5; purified enzyme, 4-MU-alpha-Gal fluorescence, pH 4.5; P06280; AID 1467; activity change, negative = inhibition, % at 105 µM; 230,000 tested, under 10 active; inconclusive = small, poorly fitted or top-dose-only inhibition, or a rising curve; inactive = flat fitted curve, though single readings scatter; no compound was filed as active;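 also: 0% = full activity with enzyme and -100% = basal without enzyme; dose as in the result columns while the protocol names 77 µM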
miR-21 FLuc – raises the signal of a miR-21 reporter. 340,000 tested, under 10 active. HeLa miR-21 FLuc reporter, luciferase, 48 h. Potency, µM (titrated, usually from 38.3 µM), inactives show top-dose reporter change, positive = more light. AID 2288; active = well fitted rising curve with a large enough effect; inconclusive = small, poorly fitted or top-dose-only effect; inactive = no such curve, though single readings can be large or run the other way;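 also: % of control where 0% means no effect; miR-21 action dims this reporter so a rising signal means less miR-21 action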
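Compounds were titrated across several concentrations (up to approximately 40 uM) and incubated 48 hours with HeLa miR-21-FLuc reporter cells (miR-21 target sequence downstream of FLuc, endogenous miR-21). Readout was firefly luciferase luminescence after lytic detection reagent.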
Rango-impB inh – prevents formation of the Rango-importin beta complex | Rango CFP/YFP FRET sensor + importin beta, 45 min | Potency, µM (highest dose often 92.2 µM), without a hit: top-dose inhibition of complex formation | 340,000 tested, 0.031% active | AID 540263; active = rising FRET ratio curve, often small or poorly fitted; inconclusive = mostly compound fluorescence or quenching in the first reads; inactive = flat curves in all reads;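 also: potency is read from the fitted curve at half-maximal effect; 0% = DMSO wells and 100% = buffer wells lacking importin beta; nearly all actives have a fitted effect of over 15% in size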
Target sequence (Q14974 whole entry, looked up): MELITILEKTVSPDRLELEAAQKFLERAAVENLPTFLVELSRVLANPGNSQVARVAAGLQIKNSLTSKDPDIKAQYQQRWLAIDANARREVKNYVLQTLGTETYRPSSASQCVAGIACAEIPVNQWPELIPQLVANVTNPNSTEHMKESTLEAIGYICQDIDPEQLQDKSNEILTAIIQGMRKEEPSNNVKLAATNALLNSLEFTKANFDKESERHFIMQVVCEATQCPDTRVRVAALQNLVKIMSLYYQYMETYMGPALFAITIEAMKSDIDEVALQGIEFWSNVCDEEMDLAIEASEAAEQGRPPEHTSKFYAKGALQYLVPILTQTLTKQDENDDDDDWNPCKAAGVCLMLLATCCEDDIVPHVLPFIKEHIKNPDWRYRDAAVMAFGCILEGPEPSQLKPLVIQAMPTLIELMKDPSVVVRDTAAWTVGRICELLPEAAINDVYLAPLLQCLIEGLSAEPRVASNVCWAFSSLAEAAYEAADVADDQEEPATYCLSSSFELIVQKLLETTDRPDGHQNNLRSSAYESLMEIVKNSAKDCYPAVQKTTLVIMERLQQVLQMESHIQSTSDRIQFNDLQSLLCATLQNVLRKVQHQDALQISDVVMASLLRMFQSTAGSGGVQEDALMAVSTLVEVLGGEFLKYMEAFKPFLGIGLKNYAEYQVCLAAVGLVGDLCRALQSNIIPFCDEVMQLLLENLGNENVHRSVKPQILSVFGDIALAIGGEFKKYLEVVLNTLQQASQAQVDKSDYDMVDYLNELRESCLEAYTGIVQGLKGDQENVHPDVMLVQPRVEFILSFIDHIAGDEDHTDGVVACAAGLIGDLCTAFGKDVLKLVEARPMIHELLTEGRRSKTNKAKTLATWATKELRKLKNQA
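Inhibition scored from the CFP 486 nm/YFP 530 nm FRET ratio 45 min after adding 0.125 microM importin beta to 50 nM Rango biosensor preincubated 5 min with compound (room temperature, PBS with DTT, Tween-20, BSA). No-importin wells as positive control.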
The depositor's hits bear a star; ? = inconclusive; nt = not tested or not shown; & = joins results of further samples. Only part of the results is shown, so the mix of outcomes need not match the whole.

SMILES	Rango release inh	GLA inh pH 4.5	miR-21 FLuc	Rango-impB inh
O=C(CSc1ncnc2[nH]ncc12)Nc1nc(-c2ccc(F)c(F)c2)cs1	11.3%	-2.1	23.5%	-1.1%
Cc1cc(C)n2nc(SCN3C(=O)c4ccccc4C3=O)nc2n1	3.7%	0.9	-0.4%	2.0%
CCOC(=O)c1ccc2c(c1)nc(SCC(=O)c1ccco1)n2CC	-15.4%	-3.7	-42.9%	-0.2%
COc1ccc(CCC(C)N2CCC(CO)(Cc3ccccc3)CC2)cc1 (stereo not drawn)	-3.4%	nt	-3.1%	2.2%
CC1CN(C(=O)CCCN2C(=O)c3ccccc3C2=O)CC(C)O1 (stereo not drawn)	16.3%	nt	0.4%	-0.5%
Cc1cc(C)cc(-n2c(C)c3c(C)nnc(C)c3c2C)c1	-13.3%	-1.9	2.0%	?
Cc1cccc(NCC(=O)N/N=C\c2c[nH]c3ccccc23)c1	-2.8%	-2.9	20.9%	-1.2%
Cc1ccc(NC(=O)CCC(=O)NNC(=O)c2ccco2)cc1C	-7.7%	0.2	-9.2%	-0.1%
COc1ccc(S(=O)(=O)Oc2cccc(/C=N/N=C3/NC(=O)C(CC(=O)O)S3)c2)cc1 (stereo not drawn)	8.2%	1.1	-5.2%	2.7%
C=C1c2cc(C)ccc2NC(=O)N1c1ccccc1	-6.6%	-11.1	-4.3%	3.9%
Cc1ccc(S(=O)(=O)N2CCCOC2CNC(=O)C(=O)NC2CCCC2)cc1 (stereo not drawn)	-2.7%	nt	3.0%	1.1%
COCCN1Cc2cccc(C(=O)Nc3c(C)cccc3C)c2C1=O	-11.3%	8.5	-2.8%	-2.2%
CCC(=O)OCC(=O)[C@@]1(OC(=O)CC)[C@@H](C)C[C@H]2[C@@H]3CCC4=CC(=O)C=C[C@]4(C)[C@@]3(Cl)[C@@H](O)C[C@@]21C	-5.9%	nt	nt	4.6%
CCc1nc(Nc2ccc(F)cc2)c2oc3ccccc3c2n1	?	nt	8.7%	?
CCC12CN3CC(CC)(CN(C1)C3c1c(O)ccc3ccccc13)C2=O (stereo not drawn)	-28.9%	-10.7	1.0%	-0.5%
COc1ccccc1C(=O)NNC(=O)c1ccncc1	4.8%	-13.6	-19.5%	0.0%
Cc1ccccc1-c1nc(C#N)c(N2CCCCC2)o1	-8.8%	nt	-26.3%	-4.3%
Oc1cccc(Oc2ncc(C(F)(F)F)cc2Cl)c1	-10.0%	5.1	-2.9%	11.0%
Cc1nc(NC(=O)C23CC4CC(CC(C4)C2)C3)sc1Cc1ccc2c(c1)OCO2	-0.3%	-7.6	-25.4%	3.3%
COc1ccc(/C=C/C(=O)NC(=S)NNC(=O)c2cccnc2)cc1	9.3%	-5.4	-26.2%	-5.7%
O=C(CN1C(=O)NC2(CCCCCCC2)C1=O)NCc1ccccc1	0.5%	nt	nt	1.1%
S=c1nc(-c2ccccc2)n(CCCn2ccnc2)c2c1CCCC2	1.5%	6.6	4.9%	-1.6%
CC(C)C[C@H]1CN([C@@H](Cc2ccc(O)cc2)CN2CCC[C@@H]2CN2C(=O)C(=O)NC[C@@H]2Cc2ccccc2)C(=O)C(=O)N1CC1CCCCCC1	?	nt	nt	1.3%
Cc1cc(C(=O)Nc2c(F)cc(F)cc2Br)no1	1.9%	-1.2	-18.6%	-3.5%
O=S(=O)(NCc1ccco1)N1CCOCC1	7.6%	-3.7	-5.7%	1.2%
O=C(c1ccc([N+](=O)[O-])cc1)N1CCSC1c1cccc(Cl)c1 (stereo not drawn)	6.7%	-4.1	1.3%	0.0%
Cc1c(C)n(Cc2ccccc2)c2ncnc(NCCO)c12	-6.8%	nt	-8.0%	2.0%
CCOC(=O)c1c(C)[nH]c(C(=O)NNC(=O)c2ccccc2F)c1C	-14.5%	nt	nt	0.2%
Cc1ccc2c(O)c(Cc3ccccc3)c(=O)[nH]c2n1	11.0%	nt	nt	-0.9%
CCOC(=O)N1CCN(CCC(=O)Nc2cccc(C)c2)CC1	-3.4%	nt	-0.3%	-1.9%
O=C(O)c1ccc2noc(-c3ccccc3)c2c1	-4.4%	-3.0	-14.8%	?
COC(=O)NNS(=O)(=O)c1ccc(C)cc1	7.3%	9.2	-3.1%	-1.3%
O=C(CN1CCC(n2nnc3cc(F)ccc32)CC1)N1CCc2ccccc2C1	-0.2%	2.0	-1.3%	-3.5%
Cn1c(COc2cccc3ccccc23)nnc1SCC(=O)OC1CCCCC1	21.8%	-3.9	-0.4%	6.6%
C[C@]12c3[nH]c4ccccc4c3CCN1C(=O)C(CC(=O)NCc1cccc(C(F)(F)F)c1)C[C@@H]2C(=O)N1CCOCC1 (stereo partly drawn)	0.4%	nt	nt	-1.4%
COc1ccc(OC)c(C2C(C(N)=O)=C(C)Nc3nc(CCCO)nn32)c1 (stereo not drawn)	12.1%	8.4	-6.1%	?
COc1ccccc1NC(=O)CSc1nnc(Cn2cnc3ccccc32)n1C	10.5%	7.0	-1.8%	?
Cc1ccc(CSc2ncnc3c2cnn3-c2ccccc2)cc1	-7.2%	-9.9	-6.7%	0.2%
Cc1ccc(C)c(NC(=O)CSc2ccc(-c3cccs3)nn2)c1	-7.6%	9.7	-9.8%	-0.4%
O=C(CCN1CCN(c2ccccc2)CC1)NNC(=O)Cc1c(F)cccc1Cl	9.9%	nt	nt	-1.4%
Cc1ccc(NC(=O)Cn2nnc(C(=O)NCc3cccs3)c2N)cc1Cl	4.6%	nt	-7.7%&-10.9%	-6.4%
CC1C(=O)N2CCCc3cc(NC(=O)C(=O)NCCc4c[nH]c5ccccc45)cc1c32 (stereo not drawn)	-6.0%	nt	nt	-0.6%
CCOP(=O)(OCC)C(Nc1cccc(C(F)(F)F)c1)c1ccc(Br)cc1 (stereo not drawn)	nt	-13.6	0.4%	nt
O=S(=O)(NC(=NC1CCCC1)C(F)(F)F)c1ccccc1	9.8%	-4.7	0.0%	0.2%
CCOc1ccc(NC(=O)CN2CCN(Cc3c(F)cccc3F)CC2)cc1	0.4%	nt	-6.9%	1.1%
CN(CC(=O)Nc1ccccc1Cl)C(=O)COC(=O)c1ccc(Cl)cc1[N+](=O)[O-]	15.8%	nt	2.4%	4.3%
Cc1ccc(Cl)cc1N1CCN(c2cccc[n+]2C)CC1	-0.7%	-1.2	22.0%	6.4%
CCOc1cc(C)c(S(=O)(=O)N2CCCC2)cc1C	1.0%	-7.7	-7.7%	-1.1%
CN(C)c1ccc(/C=C(\NC(=O)c2ccccc2)C(=O)NCc2ccncc2)cc1	-10.2%	nt	0.6%	0.6%
O=C1OCc2cccc3cccc1c23	3.8%	4.6	-8.8%	?
CCN1CCC(NCCc2ccc(F)cc2)CC1	-0.2%	nt	-15.2%	-0.7%
O=C(CCN1C(=O)/C(=C/c2ccc3c(c2)OCO3)SC1=S)Nc1cccc(C(=O)O)c1	-6.9%	nt	0.1%	-0.5%
O=C(N/N=C/c1ccc(O)cc1O)/C(=C/c1ccccc1)CCO	?	6.2	-5.6%	?
O=C(Nc1cccc([N+](=O)[O-])c1)NC1CCS(=O)(=O)C1 (stereo not drawn)	5.9%	nt	1.3%	0.1%
CC(NC1CCCC1)c1ccccc1 (stereo not drawn)	-7.4%	3.3	-3.4%	-2.0%
O=C(COc1cc(F)ccc1[N+](=O)[O-])NCCCc1ccccc1	0.9%	-15.4	-0.1%	-3.1%
O=C(Nc1cccc(Br)c1)c1ccc(CN2CCc3ccccc3C2)cc1	2.8%	nt	9.8%	1.4%
CC(=O)CCn1cc([N+](=O)[O-])nc1C	2.5%	8.1	-0.4%	-0.2%
O=C(NCc1ccncc1)C(=O)C1C(=O)Nc2ccccc21 (stereo not drawn)	3.7%	2.9	-3.0%	0.0%
CC1Cc2nc(SCC(=O)Nc3nc4ccccc4s3)n(C)c(=O)c2S1 (stereo not drawn)	-11.4%	4.7	-0.9%	-0.9%

Other structures
SMILES	Rango release inh	GLA inh pH 4.5	miR-21 FLuc	Rango-impB inh
Cc1nn2cnnc2c(C)c1Cc1c(F)cccc1Cl	-5.3%	nt	-19.6%	5.7%
CCC(C)NC(=O)CN1C(=O)NC2(CCc3ccccc3C2)C1=O (stereo not drawn)	13.0%	2.0	2.4%	?
CCOC(=O)N1CCC(Nc2c(-c3ccc(C)c(C)c3)c(=O)c2=O)CC1	-0.4%	6.5	-7.6%	-0.8%
O=c1/c(=C/c2cn(-c3ccccc3)nc2-c2ccc(F)cc2)sc2nc3ccccc3n12	nt	0.6	0.1%	nt
O=C(NCCn1cccn1)C1CCC(=O)N(CC2CCCCC2)C1 (stereo not drawn)	-13.1%	nt	-2.8%	-1.2%
N#Cc1nc(-c2ccco2)oc1NCc1ccc(F)cc1	3.5%	-1.8	-21.0%	-3.7%
CCCCC(=O)N(Cc1nc2sc(C)c(C)c2c(=O)[nH]1)C1CCCC1	-4.7%	3.5	3.5%	3.1%
COC(=O)/C=C/c1ccccc1CN1[C@@H](CC(=O)OC)c2ccccc2S1(=O)=O	-8.5%	nt	nt	-2.7%
CCc1ccc(NC(=O)CSc2nnnn2-c2cccnc2)cc1	4.2%	nt	2.9%	0.9%
CCN1CCCc2cc(CN(CCN3CCOCC3)C(=S)Nc3cccc(C)c3)ccc21	3.6%	-27.2	7.6%	3.9%
Cc1ccnc(SCC(=O)N2CCc3ccccc32)n1	10.1%	nt	-66.2%	0.2%
COc1ccc(S(=O)(=O)N2CCCCC2)cc1NC(=O)Cn1cnc2c1c(=O)n(C)c(=O)n2C	2.4%	nt	nt	2.8%
O=c1[nH]snc1-c1c(Cl)cccc1Cl	8.6%	nt	nt	19.2%
CC1=NN(c2ccccc2)C(c2ccco2)C1 (stereo not drawn)	21.7%	nt	nt	3.8%
CCCN1CCN(CCCNC(=O)Cn2cc3c(n2)CCCC3)CC1	41.2%	3.7	-6.6%	-1.8%
CCN1CCn2c3c(c4cc(Br)ccc42)CCCC31 (stereo not drawn)	-9.5%	nt	nt	1.3%
O=C(NCc1nnc(SCC(=O)N2CCOCC2)o1)c1c(F)cccc1Cl	0.8%	-2.2	6.5%	1.2%
COc1ccc(N2C(=O)Cc3ccccc3C2=O)cc1	-12.4%	nt	-4.6%	-0.9%
O=C(NC1CCN(S(=O)(=O)c2cccc(F)c2)CC1)c1ccc(F)cc1	4.1%	nt	0.6%	-1.4%
CC(=O)Nc1sc(N/N=C/c2ccc(C)cc2)nc1-c1ccc(C)cc1	5.7%	0.4	-31.1%	2.7%
CCOC(=O)c1nn(-c2ccc([N+](=O)[O-])cc2)cc1O	-1.6%	-4.3	-42.8%	-0.3%
CCn1c(=O)c2ccccc2n2c(SCC(=O)NCc3cccs3)nnc12	-1.6%	-1.2	0.2%	3.3%
CC(C)Oc1ccc(C(=O)NC(C)(C)CO)cc1	2.2%	4.3	-4.5%	0.1%
COc1ccc(-n2c(SC(C)C(=O)Nc3ccc(NC(C)=O)cc3)nc3ccccc3c2=O)cc1OC (stereo not drawn)	1.6%	nt	4.2%	-0.6%
COCCn1c(SC(C)C(=O)Nc2ncc(Cl)cc2Cl)nc2ccccc21 (stereo not drawn)	0.9%	9.2	22.2%	1.6%
CC(=O)c1cccc(N=Nc2c(C)[nH]c3ccccc23)c1	-4.5%	-4.4	-23.0%	?
CCOc1c(C)cnc2c1c(=O)n(CC(=O)NCC1CCCO1)c(=O)n2C (stereo not drawn)	-1.9%	nt	nt	2.9%
CCn1c(=O)cc(OCC(=O)NCc2cccs2)c2ccccc21	-17.3%	-1.4	0.1%	-10.2%

A draw from above in order of molar mass, ascending.
SMILES	Rango release inh	GLA inh pH 4.5	miR-21 FLuc	Rango-impB inh
O=C(O)c1ccc2noc(-c3ccccc3)c2c1	-4.4%	-3.0	-14.8%	?
CC(C)Oc1ccc(C(=O)NC(C)(C)CO)cc1	2.2%	4.3	-4.5%	0.1%
Oc1cccc(Oc2ncc(C(F)(F)F)cc2Cl)c1	-10.0%	5.1	-2.9%	11.0%
O=C(CN1C(=O)NC2(CCCCCCC2)C1=O)NCc1ccccc1	0.5%	nt	nt	1.1%

Screening data: PubChem, National Center for Advancing Translational Sciences (NCATS)
